From PubChem
2A StopGo – High Throughput Screening for Foot and Mouth Disease Virus Antivirals. Potency, µM (titrated, usually from 57.9 µM), for inactives: at the top dose signal change, negative = less light. AID 1159524, 2015. 410,000 compounds, 1.2% hits. human cells with a luciferase reporter of 2A StopGo recoding; control for the full effect not named in the record; active = well fitted falling curve with a large enough effect; inconclusive = small, poorly fitted or top-dose-only effect; inactive = no such curve, though single readings can be large or run the other way; tested in HEK293T cells; further: on the % scale 0 is the no-effect control and ±100 the full control effect; nearly all actives have a fitted effect of over 45% in size; luciferase light after 4 h
SARS PLpro yeast – qHTS of Yeast-based Assay for SARS-CoV PLP. AID 485353, 2010. Potency, µM (highest dose often 32.9 µM), for inactives: at the top dose activity, positive = growth rescue. S. cerevisiae expressing SARS-CoV PLpro, growth rescue; control for the full effect not named in the record. 330,000 compounds, 0.19% hits; further: 0% is about no effect; nearly all actives have a fitted effect of over 55% in size; growth read by luminescence after 48 h
RE007 growth inh – qHTS Assay for Inhibitors of the HIV-1 protein Vpr; 360,000 compounds, 0.21% hits; S. pombe RE007 Vpr strain, BacTiter-Glo ATP luminescence, 24 h; control for the full effect not named in the record; AID 651644, 2012; Potency, µM (highest dose often 92.2 µM), for the others: top-dose activity change, negative = less growth; active = well fitted falling curve with a large enough effect; inconclusive = small, poorly fitted or top-dose-only effect; inactive = no such curve, though single readings can be large or run the other way;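 further: on the % scale 0 is the no-effect control and ±100 the full control effect; nearly all actives have a fitted effect of over 50% in size; the assay follows cell death caused by Vpr and the record does not say whether a fall means rescue or toxicity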
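Fission yeast RE007 carrying one integrated HIV-1 vpr copy, seeded at OD 0.01 in PMG+AL medium with 23 nL pinned compound. Grown 24 h at 30 degrees; viability read by BacTiter-Glo luminescence after 5 min.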
Cruzain noTriton – qHTS Assay for Promiscuous and Specific Inhibitors of Cruzain (without detergent) | Potency, µM, for inactives: max response, negative = inhibition, usual class: inhibitors | AID 1476, 2009 | Cruzipain (Trypanosoma cruzi), P25779 | 200,000 compounds, 2.3% hits | purified cruzain, Z-FR-AMC fluorescence, no detergent; active means well fitted curve in the direction sought with a large enough effect; inconclusive means small, poorly fitted or top-dose-only effect, or another doubt; inactive means no such curve, though single readings can be large; an effect the other way counts as inactive or inconclusive;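 further: plate controls were enzyme without inhibitor for no effect and buffer without enzyme for full effect; nearly all actives have a fitted effect of over 40% in size; top concentration of the series not given in the record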
Target sequence (P25779 123-467 limits assumed): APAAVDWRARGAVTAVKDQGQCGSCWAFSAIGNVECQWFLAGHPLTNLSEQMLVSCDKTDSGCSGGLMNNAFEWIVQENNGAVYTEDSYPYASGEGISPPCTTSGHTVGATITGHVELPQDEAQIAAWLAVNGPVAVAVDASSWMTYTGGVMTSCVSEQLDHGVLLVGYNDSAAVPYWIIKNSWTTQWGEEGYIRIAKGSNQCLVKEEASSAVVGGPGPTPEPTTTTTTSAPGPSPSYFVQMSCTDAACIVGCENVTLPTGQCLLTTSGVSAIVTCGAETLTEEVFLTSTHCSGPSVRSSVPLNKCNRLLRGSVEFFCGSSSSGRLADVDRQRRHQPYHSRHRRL
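Purified cruzain at 1.5 nM, pre-incubated 15 min with compound at room temperature in 100 mM sodium acetate pH 5.5, 5 mM DTT, 0.00005% Triton X-100. Reaction started with 2 uM Z-FR-AMC; AMC fluorescence increase over 60 s gives rate.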
Cruzain Triton – qHTS Assay for Promiscuous and Specific Inhibitors of Cruzain (with detergent); Cruzipain (Trypanosoma cruzi), P25779; purified cruzain, Z-FR-AMC fluorescence, 0.01% Triton; Potency, µM, for inactives: max response, negative = inhibition, usual class: inhibitors; 200,000 compounds, 0.43% hits; active means well fitted curve in the direction sought with a large enough effect; inconclusive means small, poorly fitted or top-dose-only effect, or another doubt; inactive means no such curve, though single readings can be large; an effect the other way counts as inactive or inconclusive;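 further: plate controls were neutral wells for no effect and buffer without enzyme for full effect; nearly all actives have a fitted effect of over 40% in size; top concentration of the series not given in the record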
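Z-FR-AMC hydrolysis (2 uM substrate) by cruzain (1.5 nM) monitored kinetically at ex 360/em 450 nm after 15 min room-temperature compound exposure; 0.01% Triton X-100, pH 5.5, 5 mM DTT.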
NS1 inh – qHTS Assay for Inhibitors of Influenza NS1 Protein Function; S. cerevisiae slowed by influenza A NS1, growth recovery by OD600; Potency, µM (doses to about 46.1 µM), without a hit: top-dose activity, positive = more growth; 270,000 compounds, 0.4% hits; AID 2326, 2010; further: actives are rising curves; nearly all actives have a fitted effect of over 50% in size
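A cell-based growth assay was used: compounds that relieve NS1-induced slow growth of budding yeast raise OD600. Assay medium was yeast nitrogen base with ammonium sulphate and -URA supplement, pH 6.0, with 2% galactose.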
MARV entry inh – qHTS for inhibitors of binding or entry into cells for Marburg Virus; Marburg virus pseudotyped entry inhibition, cell reporter; control for the full effect not named in the record; about a third of the inactives were read at about 46 µM; Potency, µM (highest dose often 37.8 µM), for inactives: top-dose activity change, negative = inhibition, actives largely listed as inhibitors; 300,000 compounds, 1.8% hits; AID 540276, 2011; active = well fitted inhibition curve with a large enough effect; inconclusive = small, poorly fitted or top-dose-only effect, or effect the other way; inactive = flat fitted curve, though single readings scatter; tested in HEK293 cells; about a fifth of its hits are not listed in these tables; further: on the % scale 0 is the no-effect control and ±100 the full control effect; luciferase read-out
Lassa entry inh – qHTS for Inhibitors of binding or entry into cells for Lassa Virus; 300,000 compounds, 1.2% hits; Potency, µM (top dose mostly 37.9 µM), without a hit: top-dose activity change, negative = inhibition, most hits filed as inhibitors; Lassa virus pseudotype entry inhibition, cell reporter; control for the full effect not named in the record; active means well fitted inhibition curve with a large enough effect; inconclusive means small, poorly fitted or top-dose-only effect, or effect the other way; inactive means flat fitted curve, though single readings scatter; tested in HEK293 cells; further: on the % scale 0 is the no-effect control and ±100 the full control effect; nearly all actives have a fitted effect of over 50% in size; luciferase read-out
* marks the source's active call; other numbers are inactive results; ? = inconclusive; · = not tested or not shown; & = joins results of further samples; [ ] = remark or other dose. Unless noted, the call rests on the fitted dose curve; in most records, active means well fitted rising curve with a large enough effect; inconclusive means small, poorly fitted or top-dose-only effect; inactive means no such curve, though single readings can be large or run the other way. Potency means the concentration at half of the fitted maximal effect. Hits appear at their usual frequency; 4.8% or so of the library scored in one or more.

SMILES	2A StopGo	SARS PLpro yeast	RE007 growth inh	Cruzain noTriton	Cruzain Triton	NS1 inh	MARV entry inh	Lassa entry inh
CC1CCN(CCCNC(=O)c2ccc3c(=O)n(Cc4ccc(Cl)cc4)c(=S)[nH]c3c2)CC1	-9%	1%	-6%	·	·	·	2%	8%
CCN(CC(=O)Nc1c(F)cccc1F)C(=O)c1ccc(S(=O)(=O)N2CCCCCC2)cc1	0%	-1%	-17%	·	·	·	0%	-6%
[O-][n+]1ccccc1SC/C=C/c1ccccc1	40%[activator]	-4%	8%	·	·	·	?	-8%
CN(C)c1nc(Oc2ccc(=O)n(-c3ccccc3)n2)nc(N2CCOCC2)n1	-27%	0%	22%	0%	0.8%	-13%	1%	0%
N=C(c1cccc([N+](=O)[O-])c1)N1CCCCCC1	3%	1%	15%	·	·	0%	·	·
COc1ccc(NC(=O)Cn2c(=O)n(Cc3ccc(C(=O)NCc4ccccc4Cl)cc3)c(=O)c3ccccc32)cc1	11%	·	·	10µM*	-1.8%	·	-21%[46.1 µM]	1%[46.1 µM]
Cc1ccc(C2c3[nH]c4ccccc4c3CCN2C(=O)c2cccc(C)c2)cc1 (stereo not given)	-12%	·	·	-13%	2.9%	·	·	?
O=C(NC(=S)Nc1cccc2[nH]ncc12)c1ccccc1	15%	1%	-23%	·	·	·	?	4%[46.1 µM]
CC(Sc1nnc(CNc2cccc3ccccc23)n1-c1ccccc1)C(=O)N/N=C/c1ccco1 (stereo not given)	-4%	1%	0%	-1%	-0.7%	6%	-13%	14%
NC(=O)CSc1oc(-c2ccco2)nc1S(=O)(=O)c1ccc(F)cc1	-7%	-4%	-13%	·	·	8%	12%[46.1 µM]	?
Cc1nc2n(n1)C(c1ccccc1)C1=C(CC(c3ccco3)CC1=O)N2 (stereo not given)	0%	5%	-3%	2%	-3.0%	6%	7%	4%
O=C(C1CC(=O)N(c2ccc(F)cc2)C1)N1CCC(c2nc3ccccc3[nH]2)CC1 (stereo not given)	-3%	2%	3%	·	·	·	20%	21%
O=c1ccc(-c2ccccc2)no1	-2%	0%	-10%	·	·	2%	·	·
Cc1c(Cl)cccc1NC(=O)Cn1nc(C(F)(F)F)c2c1CCC2	-10%	·	·	-2%	-4.4%	·	-10%[46.1 µM]	11%[46.1 µM]
COc1ccc(C(=O)NC(c2ccc(Cl)cc2)c2cc(Cl)c3cccnc3c2O)cc1 (stereo not given)	-10%	·	·	2%	2.6%	·	·	-21%[46.1 µM]
CC1CCN(S(=O)(=O)c2ccc3c(c2)N(CC(=O)NCCN(C)C)C(=O)CO3)CC1	-7%	·	·	-9%	0.0%	·	-13%[46.1 µM]	0%[46.1 µM]
Cc1ccc2cc3cc(C(=O)N4CCN(c5ccc(Cl)cc5)CC4)oc3nc2c1	-1%	·	·	4%	-1.0%	·	7%[46.1 µM]	-4%[46.1 µM]
COC(=O)Nc1ccc(S(=O)(=O)N2CCCC(C(=O)Nc3cccnc3)C2)cc1 (stereo not given)	-4%	-7%	10%[3.69 µM]	-8%	2.2%	-3%	11%	1%
COc1ccc(/C=C/CN2CCCC(CCC(=O)NCc3ccc(F)c(F)c3)C2)cc1 (stereo not given)	-28%	1%	?	·	·	-2%	7.9µM*	0%
CCn1c(CSc2nnc3ccccn23)nc2cc(C(=O)O)ccc21	-12%	9%	-6%	-8%	3.0%	-4%	2%	14%
COC(=O)C1SCCN1S(=O)(=O)c1ccc(Cl)cc1 (stereo not given)	-15%	·	12%	·	·	·	?	1%
Nc1cc(C(F)(F)F)cc2c1SCC(=O)N2	-8%	6%	-6%	-2%	-1.0%	11%	29%	3%
CCn1c(=O)cc(SCC(=O)NCc2ccc(Cl)cc2)c2ccccc21	9%	·	·	0%	0.5%	·	·	0%[46.1 µM]
O=C(c1ccccc1)C(CCC(CN1CCOCC1)C(=O)c1ccccc1)CN1CCOCC1 (stereo not given)	25µM*	-20%	5%	-3%	-1.1%	-31%	?	14µM*
CC(C)(C)n1nnnc1C(c1ccc2ncccc2c1)N1CCC(O)CC1 (stereo not given)	2%	-3%	-17%	·	·	·	-7%	2%
COc1ccc(Nc2nc(CN3CCOCC3)nc3sc4c(c23)CCC(C)C4)cc1OC (stereo not given)	·	11%	·	3%	-11%	1%	13%	12%
CCN(CC)CCCNC(=O)CN1N=C(c2ccccc2)CCC1=O	-17%	·	·	3%	0.7%	·	·	?
Cc1ccccc1N1CCN(C2CCCN(C(=O)Cc3c(C)noc3C)C2)CC1 (stereo not given)	-28%	-1%	-14%	·	·	-4%	-25%	-16%
COc1ccc(/C=C2\SC(N3CCc4ccccc4C3)=NC2=O)cc1OC	-20%	-44%	13%	?	-15%	-23%	-8%	?
O=C(NCCN1CCOCC1)c1ccc(Cl)c(S(=O)(=O)N2CCCCCC2)c1	0%	5%	-1%	11%	3.9%	-1%	-20%&-20%	-21%
c1ccc(-c2cnn3c(-c4ccccc4)c(-c4ccccc4)nc3n2)cc1	-25%	-28%	9%	?	-6.0%	16%	2%	6%
Cc1ccc(O)c(N=Cc2ccc(C)s2)c1	29%	-40%	?	3%	0.9%	-14%	13%	-1%
COc1ccc(NC(=O)C2=CC(c3ccc(OC)c(OC)c3)=NS(=O)(=O)N2C)cc1	32µM*	4%	-3%	·	·	5%	·	·
CC(=O)N(C)c1ccc(NC(=O)Cc2cccs2)cc1	62%[activator]	3%	-6%	·	·	-1%	9%	13%
CC/C(=C\C(=O)c1ccncc1)Nc1ccc(O)cc1	0%	-2%	-14%	-11%	-2.5%	-7%	?	?
COCCN1C(=O)c2oc3ccccc3c(=O)c2C1c1ccc(C(=O)OC)cc1 (stereo not given)	3%	4%	-3%	7%	1.7%	?	0%	·
CCc1ccccc1NC(=O)c1nnn(CC(=O)Nc2c(C)cc(C)cc2C)c1N	18%	·	·	32µM*	0.3%	·	-7%[46.1 µM]	-11%[46.1 µM]
Cc1nc(N2CCN(c3ccccn3)CC2)c2c(C)c(C(=O)Nc3c(F)cc(F)cc3Br)sc2n1	-14%	-16%	-7%	·	·	-37%	·	·
COc1ccc(OC)c(C2SCCN2S(=O)(=O)c2cccc(C(F)(F)F)c2)c1 (stereo not given)	·	-5%	3%	8%	-7.0%	2%	-24%	-14%
O=C(/C=C/c1ccccc1)N1CCN(Cc2cc(=O)n3nc(-c4ccccc4)sc3n2)CC1	-13%	·	·	1%	1.3%	·	·	12%[46.1 µM]
CC(=O)Oc1ccc(-c2nc(-c3cccnc3)no2)cc1	10%	-7%	-23%	4%	4.1%	-19%	-20%	?
O=C(OCC(=O)N1CCc2ccccc21)c1ccccn1	28%	-2%	-11%	·	·	-2%	·	·
COC(=O)c1sccc1NC(=O)COc1ccc(F)cc1Cl	23%	-1%	1%	·	·	-4%	?	-12%[46.1 µM]
O=C(CSc1nc2ccccc2o1)Nc1nc2ccc(Br)cc2s1	-11%	5%	13%	10µM*	1.0%	10%	?	16%
COc1ccc(CN2CCNC(=O)C2CC(=O)N(Cc2nccn2C)C(C)C)c(OC)c1 (stereo not given)	-8%	3%	-16%	·	·	-4%	6%[46.1 µM]	-1%[46.1 µM]
O=C(Cn1c(=O)n(Cc2ccc(F)cc2)c(=O)c2sc3ccccc3c21)Nc1ccc(F)cc1F	10%	·	·	2%	-2.9%	·	-16%[46.1 µM]	20%[46.1 µM]
Cc1ccc(S(=O)(=O)N(C)c2ccc(C(=O)NCc3ccccn3)cc2)cc1	4%	-1%	-9%	·	·	·	-16%[46.1 µM]	?
Cc1ccc(Cn2c(NCCCn3ccnc3)nc3c2c(=O)n(C)c(=O)n3C)cc1	-11%	3%	-20%	6%	3.6%	?	?	-16%
COc1ccc(Cl)cc1N(CC(=O)NCCSCc1ccccc1)S(C)(=O)=O	?	-5%	-10%	·	·	12%	-6%	-28%
CCOc1ccc(NC(=O)CN(C)CC(=O)NC(C)c2ccccc2)cc1OCC (stereo not given)	-3%	-2%	-15%	·	·	·	-4%[46.1 µM]	1%
Cc1nn(C(C)C(=O)N/N=C/c2ccc(N(C)C)cc2)c(C)c1[N+](=O)[O-] (stereo not given)	-18%	0%	3%	·	·	-14%	-9%	-13%
O=C(Nc1ccc2c(c1)oc1ccccc12)c1ccc(Br)o1	26%	-12%	3%	?	1.9%	-22%	1%	?
CNC(=O)c1ccc(-c2ccc(F)cc2)s1	0%	-17%	-13%	12%	-9.8%	-30%	?	11%
Cc1ccc(/C(C#N)=C\c2ccc(N3CCOCC3)o2)cc1	·	-35%	?	?	-11%	4%	?	0%
C/C(=N\NC(=O)CNC(=O)c1cccnc1)c1cccc(O)c1	-7%	-1%	-4%	·	·	1%	·	·
N#Cc1c(NC(=O)CSc2nnc(-c3ccccc3O)n2-c2ccccc2)sc2c1CCCC2	0%	2%	3%	4µM*	3.3%	6%	4%&4%	1%
CCN(C(=O)CCCCC(=O)N(CC)c1ccccc1)c1ccccc1	15%	·	-12%	·	·	·	-9%[46.1 µM]	?
Cc1ccc(OCC(=O)Nc2ccc3nc(SCC(=O)N4CCCC4)sc3c2)cc1C	?	·	·	-2%	-2.3%	·	-2%[46.1 µM]	1%[46.1 µM]
COc1ccc(Cc2nnc(SC)[nH]c2=O)cc1	0%	4%	12%	-8%	0.9%	-6%	-1%	-14%
COCCn1c(C)cc(O)c(C(c2ccccc2)N2CCN(c3ccccc3)CC2)c1=O (stereo not given)	-24%	·	·	-4%	0.5%	·	·	-4%[46.1 µM]
